Source: PubChem BioAssay
PKD1 kinase inh – inhibitors of human PKD1 kinase | PKD1 kinase fluorescence polarization assay | AID 797 | Q15139 | inhibition, %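 (about 10 µM by stock and volumes)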 | hit rate 0.056% among 200,000;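 active = inhibition of 50% or more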;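 also: controls were vehicle for no effect and a reference inhibitor for full effect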
Target sequence (Q15139 whole entry, looked up): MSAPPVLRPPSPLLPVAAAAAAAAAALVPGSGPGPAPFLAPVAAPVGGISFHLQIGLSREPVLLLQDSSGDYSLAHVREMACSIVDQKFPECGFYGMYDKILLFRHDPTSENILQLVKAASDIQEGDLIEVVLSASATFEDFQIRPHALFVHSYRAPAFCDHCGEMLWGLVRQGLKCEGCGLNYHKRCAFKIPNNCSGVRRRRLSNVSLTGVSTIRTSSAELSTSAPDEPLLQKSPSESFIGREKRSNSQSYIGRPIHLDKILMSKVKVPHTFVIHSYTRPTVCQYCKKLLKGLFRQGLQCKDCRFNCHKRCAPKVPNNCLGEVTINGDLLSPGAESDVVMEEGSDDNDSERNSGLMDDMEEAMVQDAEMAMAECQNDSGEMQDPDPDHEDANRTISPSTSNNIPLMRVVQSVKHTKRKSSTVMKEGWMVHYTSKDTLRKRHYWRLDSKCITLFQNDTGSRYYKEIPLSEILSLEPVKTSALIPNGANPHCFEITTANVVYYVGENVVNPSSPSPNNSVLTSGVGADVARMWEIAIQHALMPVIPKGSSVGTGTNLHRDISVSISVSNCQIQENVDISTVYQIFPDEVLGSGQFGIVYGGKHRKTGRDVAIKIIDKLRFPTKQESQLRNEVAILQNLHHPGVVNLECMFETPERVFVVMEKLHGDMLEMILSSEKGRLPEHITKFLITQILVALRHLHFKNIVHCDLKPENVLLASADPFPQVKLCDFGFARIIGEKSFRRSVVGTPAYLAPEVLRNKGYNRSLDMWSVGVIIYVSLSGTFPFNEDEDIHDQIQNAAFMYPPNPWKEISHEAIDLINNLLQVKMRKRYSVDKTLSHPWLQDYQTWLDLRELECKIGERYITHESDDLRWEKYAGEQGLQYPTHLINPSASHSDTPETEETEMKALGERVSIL
HSV replic up – increases HSV replication in cells; HSV replication augmentation in cells, fold increase; hit rate 0.005% among 220,000; maximum fold increase;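 active = peak rise of 1.5-fold or more in the series; inconclusive = self-fluorescent or not available for retest; tested in PC3 cells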;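 also: first round at 10 µM; read as green reporter fluorescence; hits show the peak of a series up to 25 µM; 1 = signal of infected wells without compound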
RGS16-Gao – regulators of human RGS16-Galphao interaction | hit rate 0.38% among 220,000 | O15492+P09471 | bead-based flow cytometry RGS16-Galphao binding, fluorescence; actives lie on both sides | binding response (% of control), % at 10 µM;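 active = below 25% or above 175%, edge rows of some plates excepted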;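 also: Galphao activated by GDP with aluminum fluoride before binding; 100% = wells without compound and 0% = beads without RGS; some results beyond the cut were filed as inactive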
GALR2 ag – activates the human galanin receptor 2; hit rate 0.48% among 140,000; GALR2-expressing cells, agonist activation read-out; activation, %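 (tested at 5 µM)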; O43603;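 active = above mean plus 3 SD of all compounds, about 5% in these data, not always enough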;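 also: 0% = vehicle buffer wells and 100% = reference agonist at full effect; tested in CHO reporter cells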
INS promoter inh – TRM-6 insulin promoter activity inhibition; TRM-6 cells (human fetal islet line), insulin promoter-eGFP reporter, imaging; reporter expression induced with tamoxifen; AID 1273; inhibition, % at 2 µM; hit rate 0.9% among 130,000;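 active = inhibition above the mean plus 3 SD, with well images judged a real hit on visual review, cut at about 60% in these data, passing the limit was not always enough; inconclusive = inhibition over the cutoff but images rejected on review; inactive = inhibition not above the cutoff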
INS promoter inh cell count – also measured in INS promoter inh; calls as there; normalized cell count, %; measured here: cell count, toxicity; reference of the scale not given here;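 cells exposed to compound for 48 h; stained nuclei by imaging scaled within each plate; lower means fewer cells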
HSV replic up primary fold – second read-out of HSV replic up, no call of its own (marks repeat the call); fold increase; compound at 10 µM; measured here: primary screen fold increase 10 uM; tested in PC3 cells;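 GFP signal in the first replicate; 1 = infected wells without compound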
* hit, by the source's call; i = inactive; ? = inconclusive; nt = not tested or not shown. An unsorted share of the library; overall some 1.3% were active at least once.

SMILES	PKD1 kinase inh	HSV replic up	HSV replic up primary fold	RGS16-Gao	GALR2 ag	INS promoter inh	INS promoter inh cell count
CS(=O)(=O)N(CC(=O)N1CCCCCC1)Cc1ccc(Cl)cc1	-7	i	1.1	117	-2.5	7	68
Cc1ccc(C2N(c3ccc(Cl)cc3)C(=O)N3CCCN23)cc1 (stereo not given)	nt	i	1	98	nt	nt	nt
Cc1ccc2c(c1)sc1nc(=O)n(-c3cccc(Cl)c3)c(=O)n12	-2	i	0.91	114	-0.7	-74	69
CCCc1ccc(C(=O)NNc2ccc(F)cc2)cc1	nt	i	0.9	107	nt	nt	nt
CCOC(=O)C(NC(=O)C1CCCN1C(=O)OCc1ccccc1)C(=O)OCC (stereo not given)	-2	i	1.1	103	-1.7	nt	nt
COc1cc(CCCN2C(N)=NC[C@@H]2Cc2ccccc2)cc(OC)c1OC	nt	i	1	100	nt	nt	nt
Cc1ccc(Cn2ncn3c(cc4ccccc43)c2=O)cc1	-6	i	0.75	100	-1.6	nt	nt
C=CCSc1nnc(-c2cc(Br)ccc2N)c(=O)[nH]1	-11	i	1.1	101	-2.3	nt	nt
CCCn1c(=O)c2c(nc(Br)n2CCC)n(C)c1=O	12	i	1.1	110	-2.0	8	114
COC(=O)CCC(=O)NC(=S)Nc1ccc(S(=O)(=O)N2CCCC2)cc1	-2	i	0.96	105	nt	-23	65
CCCC12CN3CCN(CC(C3)/C1=N\NC(=O)c1ccccc1N)C2	1	i	1.1	103	-3.2	-42	86
CCOC(=O)CSc1nc2c(cnn2-c2ccc(C)cc2)c(=O)[nH]1	-5	i	0.95	101	0.0	-42	81
O=C(Nc1ccc2oc(-c3ccc4ccccc4c3)nc2c1)c1cccs1	3	i	0.63	101	-2.6	-4	100
CC1=CC(C)C2C(=O)N(O)C(=O)C2C1 (stereo not given)	-2	i	1	102	-2.6	41	63
O=C(NNc1nc(-c2ccccc2)cs1)c1cccs1	nt	i	1	102	nt	nt	nt
O=C(O)Cc1sc(N/N=C\c2ccccc2)nc1-c1ccccc1	-8	?	nt	100	-1.0	3	72
N#Cc1ccc(Oc2cc(C(F)(F)F)nc(-c3ccccn3)n2)cc1	10	i	0.9	99	-2.2	9	92
CSc1cccc(NC(=S)N(Cc2ccccc2)Cc2cccnc2)c1	-5	i	0.98	102	nt	nt	nt
O=C(c1ccccc1)N1CN2CN(C(=O)c3ccccc3)CC([N+](=O)[O-])(C2)C1	-5	i	1	93	-0.1	11	123
S=C(Nc1ccccc1Cl)N1CCCCC1	4	i	0.92	104	-0.9	27	116
COc1cccc(C(=O)N2CCN(Cc3cc(Br)ccc3OC)CC2)c1	1	i	0.99	104	-1.4	-108	97
COc1ccc(CNC(=O)C2CCN(S(C)(=O)=O)CC2)c(OC)c1	-1	i	1	104	nt	-27	123
Cc1cc(NC(=O)CSc2nccn2-c2cccc(C)c2C)no1	-1	i	1.2	98	nt	nt	nt
O=C(OCc1nnc(-c2ccccc2)o1)c1ccc2c(c1)OCCO2	0	i	0.92	103	-1.6	nt	nt
CC1(C)Cc2c(sc3[nH]c(=S)[nH]c(=O)c23)CO1	-2	i	1	100	nt	4	134

Ordered by the number under RGS16-Gao (high to low): 3 of the compounds above.
SMILES,PKD1 kinase inh,HSV replic up,HSV replic up primary fold,RGS16-Gao,GALR2 ag
Cc1ccc2c(c1)sc1nc(=O)n(-c3cccc(Cl)c3)c(=O)n12,-2,i,0.91,114,-0.7
CCOC(=O)C(NC(=O)C1CCCN1C(=O)OCc1ccccc1)C(=O)OCC (stereo not given),-2,i,1.1,103,-1.7
Cc1ccc(C2N(c3ccc(Cl)cc3)C(=O)N3CCCN23)cc1 (stereo not given),nt,i,1,98,nt

Remaining list, next part
SMILES	PKD1 kinase inh	HSV replic up	HSV replic up primary fold	RGS16-Gao	GALR2 ag	INS promoter inh	INS promoter inh cell count
CCOC(=O)C1(CC2CC2)CCN(C(=O)c2ocnc2C)CC1	7	i	1	102	nt	nt	nt
O=C(NCc1cn2ccsc2n1)Nc1ccc(Cl)cc1	-3	i	0.88	99	-0.9	nt	nt
CCN=C1SC(CC(=O)NCc2ccccc2)C(=O)N1CC (stereo not given)	-3	i	0.92	61	nt	nt	nt
COC(=O)c1ccc(S(=O)(=O)N2CCCC2)o1	0	i	0.93	95	-1.6	23	131
O=S(=O)(c1cc(Cl)ccc1Cl)n1nnc2ccccc21	-16	i	0.77	108	0.1	-27	180
CC(C)NC(=O)CSCc1c(F)cccc1Cl	-4	i	0.76	96	-0.4	-38	74
CCOc1ccc(N/C(=C(/C(Cl)=C(Cl)Cl)[N+](=O)[O-])n2cncn2)cc1	-1	i	0.98	98	-0.7	-10	78
CCOc1ccc(-c2[nH]ncc2Oc2cccc(OC)c2)c(O)c1	13	i	0.82	101	-2.2	-71	125
CC(=O)NCC12CC3CC(C1)CC(C(=O)O)(C3)C2	-13	i	0.99	103	-0.6	nt	nt
Cc1cc2c(nc1C)CCCN2C[C@@H](C)O/N=C1/[C@H]2CCn3c(=O)n(-c4ccccc4)c(=O)n3[C@H]2[C@H](O)[C@@H]2O[C@H]12	4	i	1.3	104	-1.3	18	110
Cn1c(=O)c2c(nc(NCc3ccco3)n2C/C=C/c2ccccc2)n(C)c1=O	nt	i	0.92	98	nt	nt	nt
CCOC(=O)C1C(=O)CC(C)(O)C(C(=O)OCC)C1c1ccc(F)cc1 (stereo not given)	-9	i	0.99	311	-1.9	-71	32
CCOC(=O)N1CCN(C(=O)CN(c2ccc(OC)cc2)S(C)(=O)=O)CC1	-7	i	0.92	106	-3.2	38	70
OCCN(CC#CCC(O)(c1ccccc1)C1CCCC1)CCO (stereo not given)	nt	i	0.84	100	nt	nt	nt
CSc1nnc([C@@H](NC(=O)OC(C)(C)C)C(C)C)o1	-2	i	0.91	90	-1.5	26	103
COc1ccc(CCNC(=S)N2CCC(C(N)=O)CC2)cc1	nt	i	1	104	nt	nt	nt
O=C(Cn1ccc([N+](=O)[O-])n1)Nc1nccs1	0	i	1.1	90	-0.1	9	72
CCCc1nn(C)c(C(=O)Nc2cccc3ccccc23)c1Cl	-5	i	1	105	0.6	-33	97
O=C(COc1ncnc2c(Cl)cc(Cl)cc12)NCCC1=CCCCC1	-5	i	0.81	101	-1.0	-19	81
O=C(CSc1nnc(-c2ccccc2)c(-c2ccccc2)n1)Nc1ccc(Br)cn1	-8	i	0.97	123	0.4	nt	nt
Cc1nc(SCC(=O)Nc2ccc3c(c2)OCO3)c(C#N)c2c1CCCC2	-2	i	0.98	98	-1.7	nt	nt
Cc1c(Cl)cccc1NC(=S)/C(=C(\[O-])c1ccc(Cl)s1)[n+]1ccccc1	-7	i	0.97	89	-1.0	-7	98
Cn1c(SCC(=O)Nc2nccs2)nnc1-c1ccc(S(=O)(=O)N2CCCC2)cc1	-1	i	0.99	99	-1.2	-17	110
CCOC1(C)OCC(=O)[C@]2(CCC3C4CCC5=CC(=O)C=CC5(C)C4C(=O)CC32C)O1 (stereo not given in full)	4	i	0.94	112	-0.3	nt	nt
CCN(C(=O)Cc1ccccc1OC)c1nnc(-c2ccncc2)s1	5	i	0.9	98	-1.7	54	121

Next part
SMILES	PKD1 kinase inh	HSV replic up	HSV replic up primary fold	RGS16-Gao	GALR2 ag	INS promoter inh	INS promoter inh cell count
S=C(Nc1ccccc1Cl)N(CCCN1CCOCC1)Cc1ccco1	-14	i	0.99	140	-1.0	-16	57
CC(=O)N/N=C(\C)c1ccc2c(c1)OCCO2	1	i	0.92	103	nt	nt	nt
COC(=O)c1cccnc1NC(=S)NNC(=O)c1ccncc1	-2	i	0.79	206	-2.5	-11	110
COc1ccccc1-c1nc(-c2ccc(Br)cc2)no1	-3	i	0.88	141	-0.8	35	85
Cc1cc(C)n(Cc2ccc(C(=O)NCCC3=CCCCC3)o2)n1	-5	i	0.94	100	-1.3	-109	110
Cc1cc(SCC(=O)Nc2cccc(S(=O)(=O)NC3=NCCCCC3)c2)nc2ccccc12	nt	i	1.1	96	nt	nt	nt
Cc1ccc(Nc2c(-c3ccco3)nc3ccccn23)cc1	-5	i	0.99	88	-1.3	-50	110
O=C(O)c1cc(N/N=C/c2ccc(N3CCOCC3)cc2)ccc1Cl	nt	i	0.6	97	nt	nt	nt
CC(C)OC(=O)CSc1nnc2c(n1)[nH]c1ccc(F)cc12	2	i	1.1	97	nt	nt	nt
CC(NC(=O)c1ccc(Cl)s1)C1CCCO1 (stereo not given)	-8	i	0.92	101	-2.9	14	127
O=C(O)c1ccc(N=NN2CCCC2)cc1	4	i	1.1	97	nt	nt	nt
Cc1ccc(OCC(=O)Nc2ccc3c(c2)OCO3)cc1C	-6	i	0.85	101	nt	nt	nt
COCC(C)NC(=S)NCCc1ccc(Cl)cc1Cl (stereo not given)	-4	i	1	96	nt	9	106
O=C(Cn1cc2c(n1)CCCC2)N1CCCC1	-17	i	0.77	103	-1.5	nt	nt
CCOc1ccc(N(C(C)C(=O)N/N=C(\C)c2cccc(NC(=O)c3ccccc3)c2)S(C)(=O)=O)cc1 (stereo not given)	-1	i	0.98	101	-0.2	24	65
CC(=O)Nc1ccc(C(=O)N/N=C/C2CC3C=CC2C3)cc1 (stereo not given)	-8	i	0.91	107	nt	25	137
Cc1cc(=O)oc(C)c1C(=O)N1CCc2c([nH]c3ccccc23)C1C(C)C (stereo not given)	0	i	0.92	101	-3.6	nt	nt
CCOC(=O)NNC(=O)c1ccc(Cl)cc1	-3	i	0.99	101	-0.9	nt	nt
Cc1ccc(C)n1-c1cc(S(=O)(=O)N2CCOCC2)ccc1N1CCCC1	6	i	0.91	104	-0.7	nt	nt
COc1ccc(C(C)C)cc1S(=O)(=O)Nc1ccccn1	-5	i	0.87	97	-0.8	21	77
O=C(Nc1ncccn1)C1c2ccccc2Oc2ccccc21	-5	i	1.1	88	-1.7	-28	57
CCN(CC)S(=O)(=O)c1ccc(NC(=O)c2ccc(CN3CCOCC3)cc2)cc1	-3	i	0.97	105	-1.5	-281	103
O=C(COC(=O)CNC(=O)c1ccccc1F)NCC(F)(F)F	-9	i	1	96	nt	nt	nt
N#CCSc1nnc(Cc2cccc3ccccc23)n1C1CCCCC1	6	i	1.2	105	0.4	nt	nt
CCn1c(=NC(=O)c2cccc(N3C(=O)CCC3=O)c2)sc2c(C)ccc(OC)c21	nt	i	0.87	101	nt	nt	nt

Three compounds already listed, sorted by formula weight, lowest first:
SMILES	PKD1 kinase inh	HSV replic up	HSV replic up primary fold	RGS16-Gao	GALR2 ag	INS promoter inh	INS promoter inh cell count
O=C(Cn1cc2c(n1)CCCC2)N1CCCC1	-17	i	0.77	103	-1.5	nt	nt
O=C(COC(=O)CNC(=O)c1ccccc1F)NCC(F)(F)F	-9	i	1	96	nt	nt	nt
S=C(Nc1ccccc1Cl)N(CCCN1CCOCC1)Cc1ccco1	-14	i	0.99	140	-1.0	-16	57

Further entries:
SMILES	PKD1 kinase inh	HSV replic up	HSV replic up primary fold	RGS16-Gao	GALR2 ag	INS promoter inh	INS promoter inh cell count
Cc1ccccc1NC(=S)N(Cc1cccnc1)Cc1ccccc1Cl	4	i	0.98	101	nt	nt	nt
COc1ccc(CCNC2CC(=O)N(N(C)C)C2=O)cc1OC (stereo not given)	7	i	0.84	103	nt	3	127
Cc1cc(C)c2[nH]c(=O)c(CN(CC3CCCO3)C(=O)C3CCCO3)cc2c1 (stereo not given)	5	i	0.92	98	-1.3	-3	109
CCc1nc2ccccc2c(C(=O)OCC(=O)C(C)(C)C)c1C	-7	i	0.88	106	nt	-78	66
O=C(NCCn1cc(SCc2ccc(F)cc2)c2ccccc21)c1ccccc1F	-3	i	0.83	nt	-2.5	-10	130
CN(C(=O)c1cnc(N2CCN(c3ncccn3)CC2)c2ccccc12)c1ccc(Cl)cc1	5	nt	nt	101	-1.8	nt	nt
O=C(NCC(c1ccco1)N1CCCCC1)C(c1ccccc1)c1ccccc1 (stereo not given)	-2	i	1.1	101	nt	-29	86
Cn1c(N)c(C(=O)CSc2nc(N)cc(=O)[nH]2)c(=O)n(C)c1=O	-1	i	1.2	100	-1.0	-16	117
NC(=O)CSc1nccn1Cc1ccc(Cl)cc1	-1	i	0.95	96	nt	nt	nt
COc1ccc(S(=O)(=O)NC(C(=O)NCCc2ccccn2)C(C)C)cc1 (stereo not given)	-6	i	0.86	95	nt	-150	82
COc1ccc(/C=C(/C(=O)c2ccc(Cl)cc2Cl)n2cncn2)cc1	-7	i	0.97	101	-4.1	nt	nt
Cc1ccc(C)c(OCCCCCn2ccnc2)c1	3	i	0.86	100	-0.5	-182	49
Cc1nn(-c2ccccc2)c(C)c1/C=N/NC(=O)c1cc(C23CC4CC(CC(C4)C2)C3)[nH]n1	-5	i	0.86	84	-2.4	19	85
COc1ccc(S(=O)(=O)N(CC(=O)N2CCN(C)CC2)C2CCCCC2)cc1OC	-5	i	0.83	100	-1.3	43	124
Cc1cc(C)c(NC2=NS(=O)(=O)c3ccccc32)c(C)c1	5	i	0.99	91	-1.6	28	101
